# Source: PubChem BioAssay
# TRPV1 potentiator = HTS Assay for Compounds that Act as Potentiators of the Vanilloid Receptor 1; Transient receptor potential cation channel subfamily V member 1 (Homo sapiens), Q8NER1; TRPV1-expressing cells, Fluo-8 calcium influx, capsaicin EC20 potentiation; host cell line not named in the record; control for the full effect not named in the record; potentiation, % at 8.33 µM; actives 0.02% (n = 320,000); active means potentiation above 80%; inconclusive means 30% to 80%; inactive means below 30%; further: 0% is about no effect
#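 Fluo-8 calcium influx in TRPV1-expressing cells, kinetic read (ex 480/em 520 nm). Compound added and read 3 min for agonist activity, followed by capsaicin at EC20 final and 2 min further read for enhancement.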
# D2 agonist = Beta-Arrestin HTS for Positive Allosteric Modulators of the Human D2 Dopamine Receptor: Agonists. actives 0.084% (n = 360,000). activation, % (test concentration not listed). DiscoveRx PathHunter D2 beta-arrestin, luminescence, 90 min; 100% = 57 uM dopamine signal. D(2) dopamine receptor (Homo sapiens), P14416. AID 624465, 2012; in the data active = activation above about 40%; inconclusive = about 15% to 40%; inactive = below about 15%; further: compound concentration not given in the record; the text of the record calls up to 30% inactive
# Target sequence (P14416 whole entry, looked up): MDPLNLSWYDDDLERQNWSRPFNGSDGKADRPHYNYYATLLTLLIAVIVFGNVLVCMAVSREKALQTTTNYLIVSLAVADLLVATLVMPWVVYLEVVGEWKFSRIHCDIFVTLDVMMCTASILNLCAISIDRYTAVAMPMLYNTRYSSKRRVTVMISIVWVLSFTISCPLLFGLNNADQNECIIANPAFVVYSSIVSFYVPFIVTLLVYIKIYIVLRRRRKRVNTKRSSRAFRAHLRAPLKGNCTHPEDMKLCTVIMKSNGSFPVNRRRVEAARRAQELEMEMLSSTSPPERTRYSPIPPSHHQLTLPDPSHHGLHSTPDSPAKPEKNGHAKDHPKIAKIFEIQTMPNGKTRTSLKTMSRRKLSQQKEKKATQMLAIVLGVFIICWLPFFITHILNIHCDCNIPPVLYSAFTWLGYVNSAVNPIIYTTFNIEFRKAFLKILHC
#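 DiscoveRx PathHunter D2 beta-arrestin cells (2,100/well) attached overnight, then compound-stimulated 90 min at 37 C in HBSS/10 mM HEPES/0.1% Tween-20 buffer; beta-galactosidase complementation read by luminescence after 1 h at ambient temperature. Dopamine 57 uM final (EC100) as control.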
# CtBP-E1A inh = qHTS Assay for Inhibitors of the CtBP/E1A Interaction | activity change, % (no concentration beside the values) | AlphaScreen GST-E1A/His-CtBP binding, 1536-well; stronger effect = lower value; control for the full effect not named in the record | actives 0.49% (n = 340,000); in the data active means activity change below about -65%; inconclusive means about -30% to -65%; inactive means above about -30%; further: on the % scale 0 is the no-effect control and ±100 the full control effect; compound concentration not given in the record
#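 Homogeneous bead-based format: GST-tagged E1A captured on glutathione donor beads, His-tagged CtBP on nickel acceptor beads; compounds precede bead addition by 2 h at 37 °C.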
# Sfp PPTase inh = qHTS Assay for Inhibitors of Bacillus subtilis Sfp phosphopantetheinyl transferase (PPTase); 4'-phosphopantetheinyl transferase ffp (Bacillus subtilis), Q9F4F7; Biochemical Sfp PPTase activity, qHTS; Potency, µM, for the others: max response, negative = inhibition, most hits filed as inhibitors; actives 3.5% (n = 310,000); active means well fitted inhibition curve with a large enough effect; inconclusive means small, poorly fitted or top-dose-only effect, or another doubt; inactive means no such curve, though single readings can be large or run the other way;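 further: the enzyme is Sfp with the accession as filed and its product quenches rhodamine fluorescence; potency means the concentration at half of the fitted maximal effect; 0% = enzyme reaction without inhibitor and -100% = no enzyme wells; top concentration of the series not given in the record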
#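 Sfp 15 nM + cpd, 15 min RT; start w/ rhodamine-CoA 5 uM, BHQ-2-YbbR 12.5 uM (final); 50 mM Hepes pH 7.6, 10 mM MgCl2, 0.01% NP-40, 0.01% BSA; read 525/598 nm at 0 and 30 min.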
# PINK1 modulator = A Quantitative High throughput Screen to Identify Chemical Modulators of PINK1 Expression. PINK1 immunofluorescence, high-content cytometry, 24 h. actives 0.2% (n = 410,000). AID 624263, 2012. Potency, µM (series often up to 76.6 µM), inactives show at the top dose activation (PINK1 increase), most hits filed as activators; active = well fitted activation curve with a large enough effect; inconclusive = small, poorly fitted or top-dose-only effect; inactive = flat fitted curve, though single readings scatter; cell line not stated here;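 further: potency means the concentration at half of the fitted maximal effect; % of control where 0% means no effect; nearly all actives have a fitted effect of over 65% in size; a mitochondrial uncoupler was the plate control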
#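 PINK1 protein level read as immunofluorescence by microplate cytometer in a fixed, stained stable cell line after 24 h exposure to five compound concentrations, with CCCP as control.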
# Six1-Eya2 inh = qHTS Assay for Inhibitors of the Six1/Eya2 Interaction; Homeobox protein SIX1 (Homo sapiens) + Protein phosphatase EYA2 (Homo sapiens), …; activity change, % (concentration not given with the values); AlphaScreen GST-Six1/His-Eya2 binding, biochemical; stronger effect = lower value; control for the full effect not named in the record; actives 0.56% (n = 360,000); AID 651725, 2012; in the data active = activity change below about -65%; inconclusive = about -30% to -65%; inactive = above about -30%; further: on the % scale 0 is the no-effect control and ±100 the full control effect
#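 Compounds are tested against tagged Six1 and Eya2 proteins bridged by glutathione donor and nickel acceptor beads; after a one-hour incubation at 37 °C without light, AlphaScreen emission is recorded.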
# D2 potentiator = Beta-Arrestin HTS for Positive Allosteric Modulators of the Human D2 Dopamine Receptor: Potentiators; actives 0.23% (n = 360,000); D(2) dopamine receptor (Homo sapiens), P14416; DiscoveRx D2 beta-arrestin cells, luminescence, 90 min; 100% = 57 uM dopamine signal; potentiation, % (no concentration beside the values); active = potentiation of 50% or more; inconclusive = 30% to 50%; inactive = 30% or less;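 further: compound concentration not given in the record; tested on top of an EC20 dose of dopamine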
#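 D2 cells co-treated with compound plus 50 nM dopamine (EC20) for 90 min at 37 deg C to detect potentiation. Beta-arrestin recruitment was read as enzyme-fragment luminescence after 1 h at ambient temperature. Full response was set by 57 uM dopamine.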
# * marks the source's active call; other numbers are inactive results; u = inconclusive; x = not tested or not shown; & = joins results of further samples; [ ] = dose if it differs, or a comment.
smiles,TRPV1 potentiator,D2 agonist,CtBP-E1A inh,Sfp PPTase inh,PINK1 modulator,Six1-Eya2 inh,D2 potentiator
CCOC(=O)N1CCN(C(=O)c2cc3cc(Cl)ccc3[nH]2)CC1,-17,1.8,0,13%,-0.1%,1,6
COc1ccc(Oc2ccc(/C=N/NC(=O)c3cccnc3)cc2[N+](=O)[O-])cc1,-26,0.4,-10,3%,8.8%,-19,-7
Nn1c(SCC(=O)Nc2ccc3c(c2)OCCO3)nncc1=O,2,-3.0,-21,-1%,1.8%,-14,-3
C/C(=N\O)C1(C)N(O)C(C)(C)C(c2ccco2)=[N+]1[O-] (stereo not drawn),1,-4.4,1,14%,1.3%,0,-3
O=C1CCc2cccc(O)c2N1,x,3.1,5,x,-4.4%,0,3
CC(=O)Nc1ccc(CN(C)c2c(C)nc3ccc(C(=O)NCCc4ccccn4)cn23)cc1,x,-2.9,-2,x,-0.2%,5,-3
CCN1C(=O)[C@H]2[C@@H](c3ccc(-c4ccccc4)cc3)N3CCC[C@@]3(C(=O)OC)[C@H]2C1=O,1,1.2,x,x,0.9%,7,-5
CC(=O)Nc1ccc(S(=O)(=O)N2CCN(Cc3ccccn3)CC2)cc1,5,-1.4,3,u,-3.6%[38.3 µM],6,-10
O=C(CSc1nc2ncc(Cl)cc2[nH]1)NC1CCS(=O)(=O)C1 (stereo not drawn),4,-5.1,-12,-23%,0.0%,1,-1
Cc1ccc2[nH]c(=O)c(COC(=O)C3CCCCC3)cc2c1,-7,-1.7,10,5%,1.2%,-1,0
CCOC(=O)C1=C(N)OC2=C(C(=O)CC(C)(C)C2)C1c1ccco1 (stereo not drawn),-3,0.2,-10,2%,1.9%,2,-9
Cn1nnc2cc(C(=O)Nc3cccnc3)ccc21,3,-4.2,4,7%,0.5%,-2,5
COc1cc2c(cc1OC)C(C1C(=O)CC(C)CC1=O)N(C(=O)CCl)CC2 (stereo not drawn),6,-2.1,-2,17%,1.2%,-1,-8
CC1CCCCC1NC(=O)C1CCC(CNS(=O)(=O)c2ccccc2)CC1 (stereo not drawn),24,-3.5,4,10%,4.6%,3,-6
CCOC(=O)N1CCC(NC(=O)c2cccc3c2C(=O)N(CCOC)C3)CC1,1,-2.4,7,6%,0.1%,3,-2
Cc1cc(C)c2c(N)c(C(=O)Nc3ccc(F)cc3)sc2n1,-9,-3.1,-12,-2%,7.0%,0,-6
O=C(COc1cccnc1[N+](=O)[O-])N1CCc2ccccc21,-10,-3.7,0,6%,-1.2%,-5,-11
O=C1c2ccccc2-n2c1nc1ccccc1c2=O,17,-9.2,-17,-12%&-5%&6%,0.9%,-18,-36
Cc1nnc(SCC(=O)NNC(=O)c2ccccc2)n1N,8,-3.2,9,x,1.8%,3,-1
CCc1ccc(C(=O)CCC(=O)Nc2cccc(S(=O)(=O)N3CCCCC3)c2)cc1,10,15,-6,x,1.0%,-13,-13
CCN(CC)C(=O)C1CC(=O)N(c2ccc(OC)cc2)C1c1ccc(OC)cc1 (stereo not drawn),0,-2.2,-8,-7%,-2.5%,2,0
COc1ccc(N(C)S(=O)(=O)c2ccc3c(c2)NC(=O)CC(=O)N3)c(OC)c1,14,7.9,-14,20%,-1.9%,5,1
Cc1c(NC(=O)c2cccc(NC(=O)c3ccco3)c2)cccc1C(=O)O,0,-0.4,-9,23%,-2.0%[38.3 µM],-1,2
CCNC(=O)C1CCCN(C(=O)c2cnc3ccccc3n2)CC1 (stereo not drawn),x,-5.9,-1,x,0.3%,9,-4

# Complete entries, quoted from the list. Screens in order: TRPV1 potentiator	D2 agonist	CtBP-E1A inh	Sfp PPTase inh	PINK1 modulator	Six1-Eya2 inh	D2 potentiator
# CC1CCCCC1NC(=O)C1CCC(CNS(=O)(=O)c2ccccc2)CC1 (stereo not drawn) as listed: 24	-3.5	4	10%	4.6%	3	-6
# COc1ccc(N(C)S(=O)(=O)c2ccc3c(c2)NC(=O)CC(=O)N3)c(OC)c1 as listed: 14	7.9	-14	20%	-1.9%	5	1
# Cn1nnc2cc(C(=O)Nc3cccnc3)ccc21 as listed: 3	-4.2	4	7%	0.5%	-2	5

# (list continues)
smiles,TRPV1 potentiator,D2 agonist,CtBP-E1A inh,Sfp PPTase inh,PINK1 modulator,Six1-Eya2 inh,D2 potentiator
CCN(CC)S(=O)(=O)c1ccc(OC)c(NC(=O)c2ccc(=O)[nH]c2)c1,0,5.5,-18,4%,0.4%,0,-4
Cc1ccc(C23CC4CC(CC(C(=O)N5CCN(C)CC5)(C4)C2)C3)cc1,-15,-5.7,x,6%,0.5%,0,-28
CC(=O)C1C(c2cccc(F)c2)NC(=O)NC1(O)C(F)(F)F (stereo not drawn),-7,5.0,12,7%,2.4%,-3,-10
CC(=O)Nc1ccc(S(=O)(=O)N2CCN(C(=O)c3ccccc3F)CC2)cc1,14,-2.1,15,17%,-0.2%,-1,-4
CCCNC(=O)CCc1c(C)nc2nc(-c3cc(OC)cc(OC)c3)nn2c1C,7,1.0,-12,8%,0.8%&-0.8%,-7,15
NC(=O)C1CCN(C(c2ccccc2)c2nnnn2C2CCCC2)CC1 (stereo not drawn),14,-1.1,-7,-6%,-1.8%,5,-12
CC1CCCC(NC(=O)CCCn2ncn3c(cc4occc43)c2=O)C1C (stereo not drawn),13,0.5,0,14%,2.4%,0,-4
COC(=O)C1CSc2[nH]c(=O)sc2C1c1ccc(OC)c(OC)c1 (stereo not drawn),-5,-0.3,-4,-23%,-1.8%,-2,-14
Cc1ccc(NC(=O)COC(=O)C2CCN(c3ccc(C(F)(F)F)cn3)CC2)cc1C,20,-3.1,9,x,-0.5%,-2,19
O=c1c(Cl)c(NCc2ccc(F)cc2)cnn1C12CC3CC(CC(C3)C1)C2,10,-0.9,2,5%,-1.3%,0,1
Fc1ccc(CNc2ccn3nc(-c4ccccc4)cc3n2)cc1,x,11,1,x,1.5%,-11,0
CN(C)CCN=Cc1c(O)n(-c2ccc(S(=O)(=O)N3CCOCC3)cc2)c(=O)c2ccccc12,-1,-3.3,-3,x,3.0%,-7,2
CCOc1ccc2nc(NC(=O)c3cccc(N4C(=O)CCC4=O)c3)sc2c1,x,1.8,1,x,4.0%,14,-11
O=S(=O)([N-]c1nc2ccccc2nc1-[n+]1ccc(-c2ccncc2)cc1)c1ccccc1,2,0.5,3,11%,-2.1%,7,-6
CC(C)[C@H]1CN(C)CCN1Cc1cn(C)nc1-c1cccc(Cl)c1,-6,-3.9,-1,13%,0.7%,3,-15
Cc1ccc(S(=O)(=O)CC(=O)Nc2ccc(S(=O)(=O)Nc3onc(C)c3C)cc2)cc1,-1,-1.2,9,27%,-4.5%[38.3 µM],7,-7
CC(C)/C=C1\CCCCC1N(C)C(=O)NC(C)C (stereo not drawn),-15,-3.8,7,25%,-0.5%,3,-19
COc1ccc(CNCc2cc(C)c(OC)cc2C)c(OC)c1,-1,-4.8,8,-11%,-0.2%,-3,-2
O=C(NCC(c1ccco1)N1CCCCC1)c1cccnc1 (stereo not drawn),3,0.3,x,x,0.8%,2,-5
CCN(N)C(=S)Nc1ccc(F)cc1,7,2.0,3,-21%,-0.1%,7,6
CCOCC(=O)Nc1c(C(=O)Nc2ccc3c(c2)OCCO3)oc2ccccc12,-22,1.8,-10,-17%,-1.1%,-5,5
CN(C)CCCN(C(=O)COc1ccccc1)c1nc2cc3c(cc2s1)OCCO3,15,1.0,x,-5%,0.5%,-8,-17
CCN(CC(=O)NCc1ccc(Cl)cc1)C(=O)CSCC(=O)Nc1ccc(C)cc1,-9,-6.8,1,x,-0.2%,3,4
CC(=O)Nc1ccc(C(=O)COC(=O)c2cccs2)c(F)c1,15,-2.5,x,x,-0.4%,-1,3
CC1CC1C(=O)Nc1nc(-c2ccccc2)cs1 (stereo not drawn),1,-0.9,1,-2%,-0.5%,-2,-14
Cc1ccc(-c2nnn3c2nc(NC(C)C)c2ccccc23)cc1,-13,-4.8,1,-9%,10%,7,-10
COc1ccc(S(=O)(=O)N2CCCC2C(=O)Nc2nc3c(s2)CCCC3)cc1 (stereo not drawn),-12,0.7,-8,7%,1.4%,-17,1
COC(=O)c1ccc(/C=C/C(=O)OCC(=O)NCc2cccs2)cc1,x,2.7,1,x,3.9%,1,-21
Cc1cccc(Oc2ncnc3onc(C)c23)c1C,6,4.3,2,-3%,-1.5%,6,26
CNc1nc(SCc2ccccc2Cl)nc2c1CCCC2,10,-1.0,11,2%,u,4,-10
COCCn1c(-c2ccc(SC)cc2)nc2c1c(=O)[nH]c(=O)n2CC(C)C,25,4.1,1,-10%,1.6%,-5,3
CCCCn1c(N)c(N(CCC(C)C)C(=O)CCCc2nc3ccccc3s2)c(=O)[nH]c1=O,-4,0.0,9,-3%,-0.9%,4,-12
COc1ccc(CCC(=O)NCc2cnn(C)c2)cc1,-2,-2.5,11,17%,6.6%[38.3 µM],2,-6
O=C(N/N=C1\CC2CC=CC12)c1ccccc1Cl (stereo not drawn),-2,-1.5,-4,11%,0.4%,-15,0
Cc1ccc(OCC(=O)N2CCc3ccccc3C2)c([N+](=O)[O-])n1,-5,4.9,-13,12%,-0.7%,-2,-20
Cc1ccc(-c2cc(C(=O)N/N=C/c3c(C)nn(C)c3C)c3ccccc3n2)cc1C,10,-2.4,-6,-2%,8.8%,-10,-29
Cc1noc(NS(=O)(=O)c2ccc(NC(=O)c3cccc(S(=O)(=O)Nc4ccccc4F)c3)cc2)c1C,x,-1.2,-2,x,0.3%,0,8
O=c1cc(-c2ccccc2Cl)oc2c([N+](=O)[O-])c(O)cc(O)c12,13,1.0,x,2%&28%,1.3%,u,-7
Cc1nc(NC(=O)CN2CCC(O)(c3ccc(F)cc3)CC2)sc1C,-15,-1.2,4,17%,0.4%,4,-18
